N370S GC = N370S glucocerebrosidase modulation, Gaucher chaperone candidate; actives 0.092% (n = 330,000); N370S GC spleen homogenate, 4MU-glucoside fluorescence; AID 2101; P04062; Potency, µM (titrated, usually from 59.4 µM), for the others: at the highest dose activity change, negative = inhibition, actives largely listed as inhibitors;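 note: 0% = full enzyme activity and -100% = no enzyme basal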
FEN1 inhibitor = blocks human flap endonuclease 1 | P39748 | AID 588795 | Recombinant FEN1 flap cleavage, fluorescence, 15 min | Potency, µM (titrated, usually from 114 µM), inactives show at the top dose activity change, negative = inhibition, actives largely listed as inhibitors | actives 0.35% (n = 390,000); note: nearly all actives have a fitted effect of over 65% in size
Target sequence (P39748 whole entry, looked up): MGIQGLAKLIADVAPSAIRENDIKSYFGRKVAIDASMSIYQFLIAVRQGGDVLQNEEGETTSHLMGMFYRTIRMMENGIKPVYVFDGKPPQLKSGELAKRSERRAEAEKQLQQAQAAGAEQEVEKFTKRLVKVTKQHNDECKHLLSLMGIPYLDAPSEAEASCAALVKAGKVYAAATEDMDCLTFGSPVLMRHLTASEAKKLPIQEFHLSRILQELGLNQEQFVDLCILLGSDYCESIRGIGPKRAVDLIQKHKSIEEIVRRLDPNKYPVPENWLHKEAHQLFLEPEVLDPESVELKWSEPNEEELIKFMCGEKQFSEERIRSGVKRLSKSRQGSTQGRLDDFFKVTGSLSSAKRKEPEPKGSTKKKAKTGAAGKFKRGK
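Steps: FEN1 (10 nM) dispensed; compound added by pin tool; 15 min at room temperature; substrate added to 50 nM final; reads at 0 min and 15 min; data normalized and fitted (four-parameter Hill).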
* = called active by the depositor; & = joins results of further samples. Calls come from the whole dose curve; as a rule, active = well fitted curve in the direction sought with a large enough effect; inconclusive = small, poorly fitted or top-dose-only effect, or another doubt; inactive = no such curve, though single readings can be large; an effect the other way counts as inactive or inconclusive. Unless noted, % is set by controls: 0 for no effect and ±100 for the full control effect; potency is the fitted concentration of half-maximal effect.

Sample of the layout (two entries):
Screening O=C(C1CCN(S(=O)(=O)c2ccccc2)CC1)N1CCC2(CC1)OCCO2 returned N370S GC -16% and FEN1 inhibitor -10%.
Screening C1CC2OC2CC1C1CO1 (stereo not given) returned N370S GC 23% and FEN1 inhibitor 1%.

The whole of this part, from the start:
Screening O=C(C1CCN(S(=O)(=O)c2ccccc2)CC1)N1CCC2(CC1)OCCO2 returned N370S GC -16% and FEN1 inhibitor -10%.
Screening C1CC2OC2CC1C1CO1 (stereo not given) returned N370S GC 23% and FEN1 inhibitor 1%.
For C[C@]12CCC3C(CC[C@H]4C[C@@H](O)CC[C@]34C)[C@H]1C=CC2=O (stereo not given in full) the results were FEN1 inhibitor 0%.
`O=C1C2CCCN2C(c2ccc(Cl)c(Cl)c2)N1c1ccccn1` (stereo not given) gave N370S GC -3% and FEN1 inhibitor 6%.
C[C@@]12CCC(=O)C[C@@H]1CC[C@@H]1[C@@H]2CC[C@]2(C)C(=O)CC[C@@H]12 was read as N370S GC 17%.
For COC(=O)C1=C(c2ccc(OCc3ccccc3)cc2)C[C@@H]2CC[C@H]1N2C(=O)NCc1ccccc1 the results were FEN1 inhibitor -22%.
Screening Clc1ccc(C[n+]2c(-c3ccccc3)cc(-c3ccccc3)cc2-c2ccccc2)cc1 returned N370S GC -30% and FEN1 inhibitor 4%.
For C=CCCC#N the results were N370S GC 14%.
Screening C[C@]12CCC3C(CC[C@H]4C[C@H](O)CC[C@]34C)C1CC(=O)[C@@H]2O (stereo not given in full) returned FEN1 inhibitor 21%.
Screening CCC(=NCCc1ccccc1)c1c(O)[nH]c(=O)[nH]c1=O returned N370S GC 0% and FEN1 inhibitor 9%.
For CC(=O)OC1N=C(c2ccccc2)c2cc(Br)ccc2NC1=O (stereo not given) the results were FEN1 inhibitor 1%.
C[C@@H]1O[C@@H](O[C@H]2C[C@@H](O)[C@]3(CO)[C@@H]4C(CC[C@]3(O)C2)[C@@]2(O)CC[C@H](C3=CC(=O)OC3)[C@@]2(C)C[C@H]4O)[C@H](O)[C@H](O)[C@H]1O (stereo not given in full) was read as N370S GC -1%&5%&5%.
Fc1ccc(Cn2nnnc2C(c2ccc(F)cc2)N2CC=C(c3ccc(F)cc3)CC2)cc1 (stereo not given) was read as N370S GC 5% and FEN1 inhibitor -2%.
`Cc1nn(Cc2ccccc2)c(C)c1C(=O)OCC(=O)Nc1cc(S(C)(=O)=O)ccc1Cl` gave N370S GC 2% and FEN1 inhibitor -1%.
COC(=O)C1=C(c2ccc(OC)c(OC)c2)C[C@@H]2CC[C@H]1N2C(=O)NCc1ccco1 was read as FEN1 inhibitor -6%.
CCN1CCN(Cc2cc(Br)ccc2O)CC1 was read as N370S GC -27% and FEN1 inhibitor -13%.
`CC(=O)c1ccc(NC2=NCCCS2)cc1` gave N370S GC -5% and FEN1 inhibitor 4%.
COc1ccc(NC(=O)C2C3CCC(O3)C2C(=O)O)c(OC)c1 (stereo not given) was read as N370S GC 0% and FEN1 inhibitor 1%.
Screening O=C1NC(=O)N(Cc2ccccc2)C(=O)/C1=C\N1CCCc2ccccc21 returned N370S GC 23% and FEN1 inhibitor -29%.
`O=C(NC(=O)c1c(F)cccc1F)Nc1cc(Cl)c(OC(F)(F)C(F)C(F)(F)F)cc1Cl` (stereo not given) gave N370S GC 15%.
`C=CCn1c(O)c(C(C)=NCCCN2CCOCC2)c(=O)[nH]c1=O` gave N370S GC 5% and FEN1 inhibitor -4%.
Screening S=C=NCc1ccccc1 returned N370S GC 0%.
Screening CC12CCC(=O)C=C1CCC1C2CCC2(C)C(O)CCC12 (stereo not given) returned N370S GC inconclusive and FEN1 inhibitor -18%.
`COC(=O)C1=C(c2ccc(OC(F)(F)F)cc2)C[C@@H]2CC[C@H]1N2C(=O)N1CCC(O)CC1` gave FEN1 inhibitor 2%.
`CN(N=O)c1ccc(O)c(O)c1` gave N370S GC inconclusive.
C/C(=C/CCC(C)[C@H]1CC[C@@]2(C)C3=C(CC[C@]12C)[C@@]1(C)CCC(=O)C(C)(C)[C@@H]1CC3)C(=O)O (stereo not given in full) was read as N370S GC 29% and FEN1 inhibitor 50µM*.
Cn1c(O)c(/C=N/NC(=O)c2ccncc2)c(=O)[nH]c1=S was read as N370S GC -2% and FEN1 inhibitor -3%.
`CC(=O)OC1N=C(c2ccccc2)c2cc(Br)ccc2N(C)C1=O` (stereo not given) gave N370S GC -11% and FEN1 inhibitor 5%.
Screening O=C(COc1ccccc1)N1CCN(C2CCCC2)CC1 returned N370S GC -14% and FEN1 inhibitor -1%.
CN(C)P(=O)(C(Cl)=C(N1CCCCC1)N1CCCCC1)N(C)C was read as N370S GC -13% and FEN1 inhibitor 6%.

A draw from above in order of SMILES length, ascending.
Screening S=C=NCc1ccccc1 returned N370S GC 0%.
`CN(N=O)c1ccc(O)c(O)c1` gave N370S GC inconclusive.
`CC(=O)c1ccc(NC2=NCCCS2)cc1` gave N370S GC -5% and FEN1 inhibitor 4%.
For CC(=O)OC1N=C(c2ccccc2)c2cc(Br)ccc2NC1=O (stereo not given) the results were FEN1 inhibitor 1%.
Screening CCC(=NCCc1ccccc1)c1c(O)[nH]c(=O)[nH]c1=O returned N370S GC 0% and FEN1 inhibitor 9%.
CN(C)P(=O)(C(Cl)=C(N1CCCCC1)N1CCCCC1)N(C)C was read as N370S GC -13% and FEN1 inhibitor 6%.
Screening O=C1NC(=O)N(Cc2ccccc2)C(=O)/C1=C\N1CCCc2ccccc21 returned N370S GC 23% and FEN1 inhibitor -29%.
For C[C@]12CCC3C(CC[C@H]4C[C@@H](O)CC[C@]34C)[C@H]1C=CC2=O (stereo not given in full) the results were FEN1 inhibitor 0%.
Screening Clc1ccc(C[n+]2c(-c3ccccc3)cc(-c3ccccc3)cc2-c2ccccc2)cc1 returned N370S GC -30% and FEN1 inhibitor 4%.
Screening C[C@]12CCC3C(CC[C@H]4C[C@H](O)CC[C@]34C)C1CC(=O)[C@@H]2O (stereo not given in full) returned FEN1 inhibitor 21%.
`Cc1nn(Cc2ccccc2)c(C)c1C(=O)OCC(=O)Nc1cc(S(C)(=O)=O)ccc1Cl` gave N370S GC 2% and FEN1 inhibitor -1%.
`O=C(NC(=O)c1c(F)cccc1F)Nc1cc(Cl)c(OC(F)(F)C(F)C(F)(F)F)cc1Cl` (stereo not given) gave N370S GC 15%.
For COC(=O)C1=C(c2ccc(OCc3ccccc3)cc2)C[C@@H]2CC[C@H]1N2C(=O)NCc1ccccc1 the results were FEN1 inhibitor -22%.

New compounds follow.
Screening C[C@]12CC[C@@H](O)CC1=CCC1C2CC[C@@]2(C)C1C[C@@H](F)[C@H]2O (stereo not given in full) returned FEN1 inhibitor -2%.
Screening Cc1ccc(-c2nn(CCC#N)cc2C(=O)O)cc1C returned N370S GC -1% and FEN1 inhibitor 3%.
For COCCOC(=O)C1=C(N)Oc2c(c(=O)oc3ccccc23)[C@@]12C(=O)Nc1ccccc12 the results were N370S GC 3% and FEN1 inhibitor 5%.
Screening CCOC(=O)N(c1ccccc1)P1(=S)OCC(C)O1 (stereo not given) returned N370S GC 1% and FEN1 inhibitor 4%.
`O=C(COc1ccccc1F)N1CCN(CCN2C(=O)c3cccc4cccc(c34)C2=O)CC1` gave N370S GC 23% and FEN1 inhibitor -20%.
Screening CCC(=NCCOc1ccc(Cl)cc1)c1c(O)n(C)c(=O)n(C)c1=O returned N370S GC 16% and FEN1 inhibitor -7%.
CC(=O)O.CC(=O)O.[Cd] was read as N370S GC 1%.
CCCCC/C=C\C=C\[C@H](CCCCCCCC(=O)O)OO was read as N370S GC 8%&3%.
For O=CC(Cl)P(=O)(N1CCCCC1)N1CCCCC1 (stereo not given) the results were N370S GC 19% and FEN1 inhibitor 3%.
C[C@H]1CC[C@H]2NCCN[C@H]2C1 was read as N370S GC 6% and FEN1 inhibitor 1%.
Screening COc1ccc(-n2c(O)c(C(C)=Nc3ccc4c(c3)CCC4)c(=O)[nH]c2=O)cc1 returned N370S GC 4% and FEN1 inhibitor 17%.
`Cc1cc(C)cc(N2C(=O)NC(=O)/C(=C/c3cccn3-c3ccc(Cl)cc3)C2=O)c1` gave N370S GC 6% and FEN1 inhibitor 0%.
Screening CCOC(=O)c1cc(C(O)(C(=O)OC)C(F)(F)F)c(/N=C/N(C)C)o1 (stereo not given) returned N370S GC -5% and FEN1 inhibitor -1%.
Cc1ccc(-n2c(/C=C\c3ccc(F)c(F)c3)nc3ccccc3c2=O)c(C)c1 was read as FEN1 inhibitor -10%.
Screening FC(F)(F)c1ccc2c(c1)NP(=S)(N1CCOCC1)c1nccn1-2 (stereo not given) returned N370S GC -3% and FEN1 inhibitor 5%.
For O=C(CO)C(O)C(O)C(O)CO (stereo not given) the results were N370S GC -1%&-2% and FEN1 inhibitor inconclusive.
CCCCCn1c(N)c(C(=O)NCc2cccs2)c2nc3ccccc3nc21 was read as N370S GC 9% and FEN1 inhibitor -19%.
CC1(C)NCCN2C(=O)CSC21 (stereo not given) was read as N370S GC 24% and FEN1 inhibitor 7%.
`CC12CC[C@H]3[C@@H](CCC4(O)C[C@H](O)CCC34/C=N/NC(=O)c3ccccc3O)C1(O)CCC2C1=CC(=O)OC1` (stereo not given in full) gave N370S GC 6% and FEN1 inhibitor -2%.
For CCOP(=O)(OCC)c1nc(-c2cccc3ccccc23)oc1NCc1ccccc1 the results were N370S GC inconclusive and FEN1 inhibitor -26%.
CC1CC2(O)c3no[n+]([O-])c3CCC2N1O (stereo not given) was read as N370S GC 0% and FEN1 inhibitor 4%.
For C[C@]12CC[C@H](O)CC1=CCC1C2CC[C@@]2(C)C1C[C@@H]1CC(=O)O[C@@H]12 (stereo not given in full) the results were FEN1 inhibitor -19%.
COC(=O)C1=C(c2cccc(C#N)c2)C[C@@H]2CC[C@H]1N2C(=O)N1CCCCC1 was read as FEN1 inhibitor -3%.
Screening CC(C)c1ccc2c(c1O)CCC1C3=C(CC[C@]21C)C(=O)OC3 (stereo not given in full) returned N370S GC -1%.
For Cc1ccc(-c2ccc(=O)n(CCC(=O)N3CCC4(CC3)OCCO4)n2)cc1 the results were N370S GC -2% and FEN1 inhibitor 14%.
For CCOC(=O)N(C)c1ccc(C(O)(C(=O)OCC)C(F)(F)F)cc1 (stereo not given) the results were N370S GC -13% and FEN1 inhibitor -3%.
`NC(=O)CN1CC(c2ccccc2)CC1=O` (stereo not given) gave N370S GC 2% and FEN1 inhibitor 8%.
Fc1ccc(C(OCCN2CCCC2)c2ccc(F)cc2)cc1 was read as N370S GC -6% and FEN1 inhibitor 0%.
`CCCCCCCSc1cc(OC)c(CCN(C)C)cc1OC` gave N370S GC inconclusive and FEN1 inhibitor 15%.
For Cn1cc(C(=O)OCC(=O)Nc2ccccc2Cl)c2ccccc21 the results were N370S GC 3% and FEN1 inhibitor -12%.
Screening CC[C@H](C)[C@@H](C(=O)N1CCCC1c1nccs1)N(C)C(=O)[C@H](CC(C)C)N(C)C(=O)[C@H](Cc1ccc(OC)cc1)N(C)C(=O)/C=C(\C)OC (stereo not given in full) returned FEN1 inhibitor -13%.
COC(=O)[C@@]1(Cc2ccc(F)cc2)[C@H]2c3cc(C(=O)N(C)C)[nH]c3C[C@H]2CN1C(=O)c1ccccc1 was read as N370S GC 5%&-2% and FEN1 inhibitor 12%.
COc1ccc(N2C(=O)NC(=O)/C(=C/c3ccc4c(c3)Cc3ccccc3-4)C2=O)cc1 was read as N370S GC 7%.
Screening O=C(C(=O)N1CCOCC1)c1cn(Cc2c(F)cccc2Cl)c2ccccc12 returned N370S GC -19% and FEN1 inhibitor 0%.
Screening CC(C)=CCCC1(C)C=Cc2c(O)c3c(c(CC=C(C)C)c2O1)OC12C(CC4CC1C(C)(C)OC2(C/C=C(/C)C(=O)O)C4O)C3=O (stereo not given) returned N370S GC -14%.
Screening O=C(Cn1ncc2c3ccccc3n(Cc3cccc(Cl)c3)c2c1=O)N1CCC2(CC1)OCCO2 returned N370S GC -8% and FEN1 inhibitor -11%.
Screening CCOP(=S)(NN(Cc1ccccc1)C(=O)c1ccccc1)OCC returned N370S GC 10% and FEN1 inhibitor 2%.
Cc1ccc(C(c2nnnn2Cc2ccccc2)N2CC=C(c3ccc(F)cc3)CC2)cc1 (stereo not given) was read as N370S GC 1% and FEN1 inhibitor -4%.
For CCN(CC)CCCN=C(C)c1c(O)n(C2CCCCC2)c(=O)[nH]c1=O the results were N370S GC -10% and FEN1 inhibitor 6%.
For C=CC[C@@H](CC/C=C/C=C/CC/C=C\[C@@H]1CSC([C@@H]2C[C@@H]2C)=N1)OC the results were FEN1 inhibitor -13%.
CC1=C(C(=O)O)N2C(=O)C(NC(=O)Cc3ccccc3)C2SC1 (stereo not given) was read as N370S GC 5% and FEN1 inhibitor 6%.
`COc1cccc(-n2nc(C(=O)N3CCC4(CC3)OCCO4)c3ccccc3c2=O)c1` gave N370S GC -5% and FEN1 inhibitor -1%.
C[C@H](N)Cc1c[nH]c2ccc(OCc3cccs3)cc12 was read as N370S GC -8%.
Screening O=C1OCCC1NC1=NCCC1 (stereo not given) returned N370S GC -12% and FEN1 inhibitor -4%.
`Cc1cccc(NC(=O)N2C[C@H]3C[C@@H](C2)c2cccc(=O)n2C3)c1` gave N370S GC -13% and FEN1 inhibitor 18%.
For NNCc1ccccc1 the results were N370S GC -8% and FEN1 inhibitor inconclusive.
For NP(=O)(Oc1ccc(Cl)cc1)Oc1ccc(Cl)cc1 the results were N370S GC 1% and FEN1 inhibitor 6%.
CCOP(=S)(OCC)OCCSCC was read as N370S GC -6%.
Screening CN(C)C(=O)Oc1c(Cl)cc(Cl)c2ccccc12 returned N370S GC -8% and FEN1 inhibitor -6%.
For NC(N)=NOCC[C@H](N)C(=O)O the results were N370S GC -1%.
Screening COc1cccc(C2(O)CCN(Cc3ccncc3)CC2)c1 returned N370S GC 14% and FEN1 inhibitor -12%.

These rows are one share of the data, and most or all hits are left out here.
